Screening data from PubChem.
Calb biofilm kill = mixtures killing C. albicans biofilm. C. albicans biofilm persisters + clotrimazole, fluorescence viability; primary screen in compound mixtures of four per well. inhibition, % at 7.6 µM. 0.02% of 120,000 active. AID 1242;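 active = inhibition above 30.3% in the primary screen of four-compound pools, then above 30% when the compound was retested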;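 note: compounds exposed to preformed 24 h biofilms for 48 h; the number belongs to the whole pool; some results filed as inactive read as strong as hits; inactives centre near 12; 0% = biofilm with clotrimazole alone and 100% = kill control; retested singly at about 60 µM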
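Test system: C. albicans biofilms. Buffer or medium: RPMI/MOPS medium, pH 7.0. Timing: 48 h compound exposure at 37 °C. Technique: Alamar Blue fluorescence. Evaluation: percent inhibition of biofilm viability.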
* marks the source's active call; other numbers are inactive results. An excerpt (hit frequency here may not be typical).

Preview, two compounds:
SMILES | Calb biofilm kill
COc1ccccc1/C=C/C=N/NC(=O)CCn1cnc2ccccc21 | 12
CC(=O)CSc1nnc(CN2C(=O)CSc3ccc(C(F)(F)F)cc32)n1C | 31

The listing, from the start:
SMILES | Calb biofilm kill
COc1ccccc1/C=C/C=N/NC(=O)CCn1cnc2ccccc21 | 12
CC(=O)CSc1nnc(CN2C(=O)CSc3ccc(C(F)(F)F)cc32)n1C | 31
O.O.O.O=S(=O)([O-])OC[C@H]1O[C@@H](O[C@]2(COS(=O)(=O)[O-])O[C@H](OS(=O)(=O)[O-])[C@@H](OS(=O)(=O)[O-])[C@@H]2OS(=O)(=O)[O-])[C@H](OS(=O)(=O)[O-])[C@@H](OS(=O)(=O)[O-])[C@@H]1OS(=O)(=O)[O-].[Al] | 18
O=C(N/N=C/c1cc(Br)ccc1O)c1ccccc1Cl | 15
COc1ccc(Nc2nc3ccc(OC)cc3s2)cc1 | 18
COc1ccc(C(=O)NCc2ccc3c(c2)OCO3)cc1S(=O)(=O)NCc1ccc(Cl)cc1 | 15
O=[N+]([O-])c1ccccc1S(=O)(=O)N1CCc2ccccc2C1 | 15
COc1ccc(-n2nnnc2SCC(=O)NNC(=O)c2ccc([N+](=O)[O-])cc2)cc1 | 21
CC(=O)Nc1cc2c(ccc3ccccc32)oc1=O | 14
CC(C)(C)NC(=O)Cn1c(Cl)nc2ccccc21 | 22
Cc1cccc(NC(=O)NC(C)C(c2ccccc2)N2CCN(C)CC2)c1 (stereo unspecified) | 35
CC(C)c1ccc(/C=N/NC(=O)CC(=O)NC2CCCCC2)cc1 | 22
COc1ccc(C2c3ccc(O)cc3Oc3ncn(CC(C)C)c(=N)c32)cc1 (stereo unspecified) | 9
CN(C)c1ccc(P(=O)(OCc2ccccc2)C(O)c2ccc(Cl)cc2)cc1 (stereo unspecified) | 9
COc1cccc(NC(=S)N2CCc3cc(OC)c(OC)cc3C2COc2ccc3c(C)cc(=O)oc3c2)c1 (stereo unspecified) | 10
CN(C)c1cc(-c2ccc(Cl)cc2Cl)oc(=O)c1Cl | 22
CN1c2ccccc2C2(C)CCCC3=Cc4cc([N+](=O)[O-])cc([N+](=O)[O-])c4OC312 (stereo unspecified) | 5
O=C(C/C=N\OCc1ccc([N+](=O)[O-])cc1)Nc1ccc(Cl)cc1 | 4
CC1=C(C(N)=O)C(c2cccs2)NC(=O)N1 (stereo unspecified) | 14
Cc1nc(-c2ccc(-c3ccon3)s2)no1 | 15
O=[N+]([O-])c1cccc(-c2ccc(SCc3cccnc3)nn2)c1 | 9
Cc1onc(-c2ccccc2Cl)c1C(=O)N1CCN(c2ncccn2)CC1 | 25
C=CCOC(=O)C1=C(C)NC(SCC(N)=O)=C(C#N)C1c1ccc(C)cc1 (stereo unspecified) | 18
CC(=O)N1CCN(C(=O)c2cc(S(=O)(=O)Nc3ccc(S(C)(=O)=O)cc3)ccc2Cl)CC1 | 14
NS(=O)(=O)c1ccc(CCNC(=O)COC(=O)CN2C(=O)C3CCCCC3C2=O)cc1 (stereo unspecified) | 5
Cc1c(C(=O)O)nnn1-c1nonc1N | 11
COc1nn(C(C)C(=O)N2N=C(C(F)F)CC2(O)C(F)F)cc1[N+](=O)[O-] (stereo unspecified) | 9
Cn1c2ccccc2c2cnn(CC(=O)Nc3ccc(Cl)cc3)c(=O)c21 | 30
CCCCCCCCCc1nc2sc3c(c2c(=O)n1NC(=O)c1ccccc1[N+](=O)[O-])CC(C)(C)OC3 | 10
Cc1ccccc1C(=O)N/N=C/c1ccsc1C | 5
CC(C)c1ccc(CCNC(=O)c2ccc([N+](=O)[O-])cc2)cc1 | 16
COc1ccc(CN2CCN(Cc3cccc(OC)c3)C(CCO)C2)cc1 (stereo unspecified) | 9
CC(=O)N1CCN(S(=O)(=O)c2cccc(C(=O)OCC(=O)N3CC(=O)Nc4ccccc43)c2)CC1 | 18
COCCCNC(=S)N1CCCC(c2nc3cc(C)c(C)cc3[nH]2)C1 (stereo unspecified) | 28
CNC(=S)N(Cc1cccs1)Cc1cc2cc(OC)c(OC)cc2[nH]c1=O | 15
Cc1cccc(/C=N/Nc2cc(N3CCOCC3)nc(N3CCOCC3)n2)c1 | 1
Cc1ccc(OCC(=O)N/N=C\c2ccc(C)o2)c([N+](=O)[O-])c1 | 14
Cn1cccc1/C=C1\SC(=S)N(NC(=O)c2ccccc2Cl)C1=O | 6
CC(=O)Nc1cccc(/C(C)=N/NC(=O)c2ccc(CN3CCOCC3)cc2)c1 | 27
COc1ccc(C(NC(=O)N2CC(C)OC(C)C2)C(Cl)(Cl)Cl)cc1F (stereo unspecified) | 26
Fc1ccccc1-c1csc(=Nc2cccnc2)n1CCCn1ccnc1 | 10
Cc1ccc(-n2c(=O)c3sccc3n(Cc3cc(=O)n4cc(Cl)ccc4n3)c2=O)cc1F | 9
C=CCn1c(C(C)NC(=O)c2ccccc2C)n[nH]c1=S (stereo unspecified) | -3
Cc1ccc(NS(=O)(=O)c2ccc(CCC(=O)NCCCOC(C)C)cc2)cc1 | 11
O=C1N(Cc2cccnc2)C[C@@H]2C[C@@H](c3ccc4nsnc4c3)N3CCC[C@@]123 | 10
Cc1ccc(S(=O)(=O)NNC(=O)C2CC=CCC2C(=O)O)cc1 (stereo unspecified) | 4
CCOC(=O)N/N=C1\CC(C)CC(C)(C)C1 (stereo unspecified) | 11
COC(=O)[C@@H]1C[C@@]2(O)[C@@H](O)[C@@H](O)[C@@H](O)C[C@H]2N1Cc1ccc(C)s1 | 5
C=CCn1c(C(CC(C)C)CC(C)O)n[nH]c1=S (stereo unspecified) | 11
COc1cccc(N/C(SC)=C(/C#N)C(=O)NCc2cccs2)c1 | 10
Cc1cc(C)cc(C(=O)OCC(=O)NCC(F)(F)F)c1 | 11
Cc1ccc(-n2c(SCC(=O)N(C)C3CCS(=O)(=O)C3)nc3ccccc3c2=O)cc1 (stereo unspecified) | 17
CCN(C(=S)NC(=O)c1ccccc1Br)C1CCCCC1 | 16
COC(=O)c1c(NC(C)=O)sc(C(=O)Nc2ccccc2)c1C | 23
CCn1c(-c2csc3c2CCC(C)C3)n[nH]c1=S (stereo unspecified) | 13
O=C(NC1CCCCCCC1)c1cc(F)c(F)cc1Cl | 18
COc1ccc2c(c1)c(C(=O)N/N=C/c1cccc(Br)c1)c(C)n2C | 18
CCOc1ccc(N(CC(=O)Nc2c(C)n(C)n(-c3ccccc3)c2=O)S(=O)(=O)c2ccccc2)cc1 | 10
Cc1c(NC(=O)Nc2ccc(Cl)cc2Cl)c(=O)n(-c2ccccc2)n1C | 7
CN(C)NC1CC(=O)N(c2ccccc2)C1=O (stereo unspecified) | 5
Remaining list, next part
SMILES | Calb biofilm kill
COc1ccc(NC(=O)CSc2nccn2C)c([N+](=O)[O-])c1 | 24
CSc1ncccc1C(=O)OCC(=O)Nc1ccc(S(=O)(=O)N2CCCC2)cc1 | 14
N=c1sccn1CC(=O)Nc1ccc(Cl)cc1[N+](=O)[O-] | 21
CC(=O)c1cccc(N(CC(=O)Nc2cc(C)cc(C)c2)S(C)(=O)=O)c1 | 15
O=C(NNC(=S)Nc1cccc(C(F)(F)F)c1)c1cccc(Cl)c1 | -2
CSCC[C@H](NC(=O)C(C)Oc1ccc(Cl)cc1)c1nc2ccccc2[nH]1 (stereo partly specified) | 14
O=C(O)c1cc(NS(=O)(=O)c2ccc(NC3CCCCC3)c([N+](=O)[O-])c2)cc(C(=O)O)c1 | 20
CC(=O)c1cccc(CN2CCCC(CCC(=O)NCc3ccc(F)c(F)c3)C2)c1 (stereo unspecified) | -2
COC(=O)c1ccc(C(C(=O)NC2CCCCC2)N(Cc2ccc(F)cc2)C(=O)Cc2cccs2)cc1 (stereo unspecified) | 14
CC(C)CNC(=O)c1cc([N+](=O)[O-])ccc1N1CCCCC1 | 15
CCCN(CCC)CC(O)Cn1c2ccccc2c2ccccc21 (stereo unspecified) | 8
CCNC(=S)/N=C(\N)Nc1nc(C)c2cc(C)ccc2n1 | -11

As a working copy, part of the list above:
SMILES | Calb biofilm kill
Cc1ccc(-n2c(=O)c3sccc3n(Cc3cc(=O)n4cc(Cl)ccc4n3)c2=O)cc1F | 9
C=CCn1c(C(C)NC(=O)c2ccccc2C)n[nH]c1=S (stereo unspecified) | -3
Cc1ccc(NS(=O)(=O)c2ccc(CCC(=O)NCCCOC(C)C)cc2)cc1 | 11
O=C1N(Cc2cccnc2)C[C@@H]2C[C@@H](c3ccc4nsnc4c3)N3CCC[C@@]123 | 10
Cc1ccc(S(=O)(=O)NNC(=O)C2CC=CCC2C(=O)O)cc1 (stereo unspecified) | 4
CCOC(=O)N/N=C1\CC(C)CC(C)(C)C1 (stereo unspecified) | 11
COC(=O)[C@@H]1C[C@@]2(O)[C@@H](O)[C@@H](O)[C@@H](O)C[C@H]2N1Cc1ccc(C)s1 | 5

The list goes on:
SMILES | Calb biofilm kill
Cc1ccc(/C=N/N=C2/NC(=O)C(CC(=O)Nc3ccc(Cl)cc3)S2)o1 (stereo unspecified) | 9
O=C(N/N=C/c1ccc(-c2ccccc2[N+](=O)[O-])o1)c1cncc(Br)c1 | 13
Cc1ccc(S(=O)(=O)NNC(=O)c2ccccc2O)cc1 | 11
CC1CCN(C(=S)Nc2ccc3nc4n(c(=O)c3c2)CCCCC4)CC1 | 13
COc1ccccc1N(C)S(=O)(=O)c1ccc(C(=O)O)cc1 | 10
CC1CCCC(NC(=O)COC(=O)[C@@H]2CC(O)CN2S(=O)(=O)c2ccc3c(c2)OCCO3)C1C (stereo partly specified) | 10
O=C(CNc1cc(S(=O)(=O)N2CCCC2)ccc1OCC(F)(F)F)Nc1ccc(SC(F)F)cc1 | 21
COc1ccc([N+](=O)[O-])cc1NC(=O)c1ccc(CN(c2ccc(C)c(C)c2)S(C)(=O)=O)cc1 | 1
CC(=O)c1cccc(NC(=O)c2ccc(N(Cc3ccccc3C)S(C)(=O)=O)cc2)c1 | 11
Oc1ccccc1-c1csc(-c2ccccc2)n1 | 11
CC(C)(C)C1CCC(=NNC(=O)c2cc(-c3ccccc3)n[nH]2)CC1 (stereo unspecified) | 6
CC(=C\C(=O)O)/C(=C/c1ccc(C)o1)C(=O)O | 16
Cc1c(C(=O)N(C)C)c2ccc(Cl)cc2n1O | 14
COCC(=O)Nc1cc([N+](=O)[O-])ccc1OC | 5
N#Cc1ccc(C23CC4(C2)[C@H](CN(CC2CCCCC2)[C@@H]4c2ccccc2)C3c2ccc(Cl)nc2)cc1 (stereo partly specified) | 16
COc1ccc(-n2c(NN)nc3sc4c(c3c2=O)CCCC4)cc1 | 20
CCCN1CCC(=NNc2ccc(S(N)(=O)=O)cc2[N+](=O)[O-])CC1 | 3
NC(=S)N/N=C/c1ccccc1[N+](=O)[O-] | 11
O=C(Nc1nnc(C(F)(F)F)s1)c1c(F)cccc1F | 14
COC(=O)c1cc(C(=O)N2CCN(c3ccccc3OC)CC2)cc([N+](=O)[O-])c1 | 7
CC(C)C(=O)Nc1nnc(SCC(=O)NCc2ccco2)s1 | -5
N#CC1=C(N)N(c2ccc(Cl)c(Cl)c2)C(=O)C1 | 3
CN(CC(=O)Nc1cccc2ccccc12)C(=O)/C=C/c1cccs1 | 15
COC(=O)c1cccc(C(=O)N2CCCC(C(=O)c3cc(F)ccc3F)C2)c1 (stereo unspecified) | 31

6 records drawn at random from those above, as already listed:
SMILES | Calb biofilm kill
CCN(C(=S)NC(=O)c1ccccc1Br)C1CCCCC1 | 16
CC(C)(C)NC(=O)Cn1c(Cl)nc2ccccc21 | 22
N#CC1=C(N)N(c2ccc(Cl)c(Cl)c2)C(=O)C1 | 3
COc1nn(C(C)C(=O)N2N=C(C(F)F)CC2(O)C(F)F)cc1[N+](=O)[O-] (stereo unspecified) | 9
Cc1ccc(OCC(=O)N/N=C\c2ccc(C)o2)c([N+](=O)[O-])c1 | 14
C=CCn1c(C(C)NC(=O)c2ccccc2C)n[nH]c1=S (stereo unspecified) | -3

More structures follow:
SMILES | Calb biofilm kill
CC(C)CC(COCc1cccc(Cl)c1)N1CCN(C(=O)c2ccc(C(F)(F)F)cc2)CCC1=O (stereo unspecified) | 16
Cc1ccc2c(c1)C1(C)C(C(C)(C)N2C=O)C1(Cl)Cl (stereo unspecified) | 23
COc1cc(/C=N/NC(=O)c2ccc(COc3ccccc3Cl)o2)cc(Br)c1O | 13
CC(=O)Nc1ccc(S(=O)(=O)N2CCCC(C(=O)O)C2)cc1 (stereo unspecified) | 13
O=C(CN1C(=O)NC(CCc2ccccc2)C1=O)NC1CC1 (stereo unspecified) | 32
O=C(C[n+]1cccc(/C=N/O)c1)N1CCCCCC1 | 16
CNCCCC1c2ccccc2C=Cc2ccccc21 | 17
CN(C1CCCC1)C1CCN(C(=S)Nc2cc(F)cc(F)c2)CC1 | 21
COC(=O)C1C(c2ccc(N(C)C)cc2)C(C(=O)OC)S(=O)(=O)CS1(=O)=O (stereo unspecified) | 4
O=C(/C=C/Nc1ccccc1C(F)(F)F)c1ccco1 | 13
O=C(/C(=N\Nc1ccccc1)Sc1nnnn1-c1ccccc1)c1ccccc1 | 20
O=C(NCc1nnc(SCc2ccccc2)n1-c1ccc(F)cc1)C12CC3CC(CC(C3)C1)C2 | 15
COc1ccc(C(C)=O)cc1CSc1nc2cc(C(=O)O)ccc2c(=O)n1Cc1ccccc1 | 19
COc1ccccc1C(=O)Nc1nnc(SCC(=O)Nc2ccc3c(c2)oc2ccccc23)s1 | 11
C=C(C(=O)O)C(CCCCCC)C(=O)O (stereo unspecified) | -10
CCN(CC)N=Nc1ccc(S(N)(=O)=O)cc1 | 25
CCC(C)[C@H](NC(=O)CCn1nnc2ccccc2c1=O)C(=O)O (stereo partly specified) | 11
